# Assay outcomes from PubChem.
# Ran FRET – RanGTP/importin-beta interaction disruptors – biochemical, CFP-Ran/YFP-importin-beta FRET, RCC1, cell-free, primary screen (AID 434961). CFP-Ran/YFP-importin-beta FRET, cell-free; active compounds read high. inhibition, %. actives 0.2% (n = 7,700);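 active = more than half of the replicate wells above 15% inhibition; inconclusive = exactly half above it; inactive = fewer than half above it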;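 also: 0% = DMSO wells and 100% inhibition = RanGDP control wells on each plate; stock of unstated strength diluted about 400-fold; mean of two wells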
# Active calls of the source: *; ? = inconclusive. The list is partial. The share of hits here may be higher or lower than overall.
SMILES | Ran FRET
CNC[C@H]1Oc2ccc(NC(=O)Nc3c(C)noc3C)cc2CC(=O)N([C@@H](C)CO)C[C@@H]1C | -0.7
C[C@H](CO)N1C[C@H](C)[C@H](CN(C)C)Oc2ccc(NS(=O)(=O)c3cccs3)cc2C1=O | -4.7
C[C@@H]1CCCCO[C@@H](CN(C)C(=O)Nc2ccc(F)cc2)[C@@H](C)CN([C@@H](C)CO)C(=O)c2cc(N(C)C)ccc2O1 | 0.5
COc1ccc(NC(=O)Nc2ccc3c(c2)C(=O)N([C@H](C)CO)C[C@H](C)[C@H](CN(C)C)O3)cc1 | ?
C[C@H](CO)N1C[C@H](C)[C@H](CN(C)CC2CC2)Oc2ccc(NS(C)(=O)=O)cc2CC1=O | -2.5
C[C@H]1CCCCO[C@H](CN(C)C(=O)c2ccccc2)[C@@H](C)CN([C@@H](C)CO)C(=O)c2cc(NS(=O)(=O)c3cn(C)cn3)ccc2O1 | 5.6
C[C@H]1CN([C@@H](C)CO)C(=O)c2cccc(NC(=O)c3ccc(-c4nccs4)cc3)c2O[C@H]1CN(C)C(=O)Nc1cccc2ccccc12 | 0.1
C[C@@H]1CCCCO[C@@H](CN(C)C(=O)CCCN(C)C)[C@@H](C)CN([C@@H](C)CO)C(=O)c2cc(NS(=O)(=O)c3ccccc3)ccc2O1 | 4.3
C[C@H](CO)N1C[C@H](C)[C@@H](CN(C)C(=O)Nc2ccc(C(F)(F)F)cc2)Oc2ccc(NC(=O)Nc3ccccc3)cc2C1=O | -2.5
COc1ccc(S(=O)(=O)Nc2ccc3c(c2)C(=O)N([C@@H](C)CO)C[C@H](C)[C@@H](CN(C)S(=O)(=O)c2ccc(OC)cc2)O3)cc1 | -2.9
C[C@@H]1CN([C@H](C)CO)C(=O)c2cc(NS(=O)(=O)c3ccc(Cl)cc3)ccc2O[C@H]1CN(C)C | 3.2
CNC[C@@H]1Oc2c(N)cccc2C(=O)N([C@@H](C)CO)C[C@H]1C | 0.9
C[C@H](CO)N1C[C@H](C)[C@H](CN(C)C(=O)Nc2ccccc2)Oc2ccc(NC(=O)Cc3cn(C)c4ccccc34)cc2CC1=O | 2.8
CNC[C@@H]1Oc2c(NC(=O)c3nc4ccccc4s3)cccc2C(=O)N([C@H](C)CO)C[C@H]1C | 5.6
COc1ccc(NC(=O)Nc2ccc3c(c2)CC(=O)N([C@H](C)CO)C[C@@H](C)[C@H](CN(C)S(=O)(=O)c2ccc(C)cc2)O3)cc1 | -1.9
C[C@@H]1CN([C@H](C)CO)C(=O)c2cc(NC(=O)Cc3ccccc3)ccc2O[C@@H](C)CCCCO[C@@H]1CN(C)C | -2.8
C[C@@H]1CN([C@@H](C)CO)C(=O)c2cccc(NS(=O)(=O)c3cn(C)cn3)c2O[C@@H]1CN(C)CC1CC1 | ?
C[C@@H]1CN([C@@H](C)CO)C(=O)Cc2cc(NS(=O)(=O)c3ccc(Cl)cc3)ccc2O[C@H]1CN(C)CC1CCCCC1 | -3.4
CC(C)NC(=O)Nc1ccc2c(c1)CC(=O)N([C@H](C)CO)C[C@H](C)[C@H](CN(C)S(=O)(=O)c1ccccc1)O2 | -0.5
C[C@@H]1CN([C@@H](C)CO)C(=O)c2cc(NS(C)(=O)=O)ccc2O[C@@H](C)CCCCO[C@H]1CN(C)C(=O)CCC(F)(F)F | -3.0
C[C@H](CO)N1C[C@H](C)[C@@H](CN(C)S(=O)(=O)c2cn(C)cn2)Oc2ccc(NC(=O)Nc3ccc(F)cc3)cc2C1=O | -1.3
C[C@@H]1CCCCO[C@H](CN(C)C(=O)Cc2ccccc2)[C@@H](C)CN([C@H](C)CO)C(=O)c2cc(NC(=O)Nc3ccc(F)cc3)ccc2O1 | -2.3
C[C@H](CO)N1C[C@H](C)[C@H](CN(C)Cc2ccccc2)Oc2ncc(-c3cc4ccccc4o3)cc2C1=O | -1.4
C[C@H](CO)N1C[C@H](C)[C@H](CN(C)C(=O)Nc2ccccc2)Oc2ccc(NC(=O)Cc3ccccc3)cc2C1=O | -0.4
C[C@H](CO)N1C[C@H](C)[C@@H](CN(C)Cc2ccc(Oc3ccccc3)cc2)Oc2c(NC(=O)C3CCOCC3)cccc2C1=O | -2.0

# Next part; it opens with the 4 that closed the last part.
SMILES | Ran FRET
C[C@@H]1CCCCO[C@H](CN(C)C(=O)Cc2ccccc2)[C@@H](C)CN([C@H](C)CO)C(=O)c2cc(NC(=O)Nc3ccc(F)cc3)ccc2O1 | -2.3
C[C@H](CO)N1C[C@H](C)[C@H](CN(C)Cc2ccccc2)Oc2ncc(-c3cc4ccccc4o3)cc2C1=O | -1.4
C[C@H](CO)N1C[C@H](C)[C@H](CN(C)C(=O)Nc2ccccc2)Oc2ccc(NC(=O)Cc3ccccc3)cc2C1=O | -0.4
C[C@H](CO)N1C[C@H](C)[C@@H](CN(C)Cc2ccc(Oc3ccccc3)cc2)Oc2c(NC(=O)C3CCOCC3)cccc2C1=O | -2.0
COc1ccc(CN(C)C[C@@H]2Oc3ccc(NC(=O)Cc4cn(C)c5ccccc45)cc3CC(=O)N([C@@H](C)CO)C[C@H]2C)cc1 | 3.9
Cc1noc(C)c1S(=O)(=O)Nc1ccc2c(c1)C(=O)N([C@H](C)CO)C[C@@H](C)[C@@H](CN(C)C(=O)NC(C)C)OCCCC[C@H](C)O2 | -0.7
C[C@H](CO)N1C[C@H](C)[C@H](CN(C)S(=O)(=O)c2cccs2)Oc2ncc(C#Cc3ccccc3)cc2C1=O | -3.4
Cc1noc(C)c1NC(=O)N(C)C[C@H]1Oc2c(NC(=O)c3cnccn3)cccc2C(=O)N([C@H](C)CO)C[C@@H]1C | -2.7
C[C@@H]1CN([C@H](C)CO)C(=O)c2cccc(NC(=O)Nc3ccc(F)cc3)c2O[C@@H]1CN(C)C | -4.4
C[C@@H]1CN([C@@H](C)CO)C(=O)c2cc(NS(C)(=O)=O)ccc2O[C@@H](C)CCCCO[C@H]1CN(C)C | 4.8
C[C@H](CO)N1C[C@H](C)[C@H](CN(C)C(=O)Nc2ccccc2)OCCCC[C@H](C)Oc2ccc(NC(=O)c3ccccc3)cc2C1=O | -2.7
Cc1noc(C)c1NC(=O)Nc1ccc2c(c1)C(=O)N([C@@H](C)CO)C[C@H](C)[C@H](CN(C)S(=O)(=O)c1cccs1)OCCCC[C@H](C)O2 | ?
C[C@H](CO)N1C[C@H](C)[C@@H](CN(C)Cc2ccncc2)OCCCC[C@H](C)Oc2ccc(NS(C)(=O)=O)cc2C1=O | -4.1
CNC[C@H]1Oc2c(NS(C)(=O)=O)cccc2C(=O)N([C@H](C)CO)C[C@@H]1C | -0.9
CC(C)NC(=O)N(C)C[C@@H]1OCCCC[C@@H](C)Oc2ccc(NS(C)(=O)=O)cc2C(=O)N([C@H](C)CO)C[C@@H]1C | -3.5
C[C@H](CO)N1C[C@H](C)[C@H](CN(C)Cc2ccc3c(c2)OCO3)Oc2ccc(NC(=O)Nc3ccc(F)cc3)cc2CC1=O | 1.0
C[C@@H]1CN([C@H](C)CO)C(=O)Cc2cc(NC(=O)Nc3ccc4c(c3)OCO4)ccc2O[C@@H]1CN(C)C(=O)Nc1ccc2c(c1)OCO2 | 1.1
C[C@H]1CN([C@@H](C)CO)C(=O)c2cccc(NC(=O)c3ccncc3)c2O[C@@H]1CN(C)Cc1ccc(C(=O)O)cc1 | -0.7
COc1ccc(S(=O)(=O)N(C)C[C@@H]2Oc3c(NC(=O)c4ccncc4)cccc3C(=O)N([C@@H](C)CO)C[C@@H]2C)cc1 | 4.8
C[C@H](CO)N1C[C@H](C)[C@H](CN(C)Cc2ccncc2)Oc2ccc(N(C)C)cc2C1=O | 0.3
C[C@H](CO)N1C[C@H](C)[C@@H](CN(C)C)Oc2c(NC(=O)Nc3ccc(C(F)(F)F)cc3)cccc2C1=O | 0.3
C[C@H](CO)N1C[C@H](C)[C@@H](CN(C)Cc2ccc3cccnc3c2)OCc2cn(nn2)CCCC1=O | -1.9
C[C@H](CO)N1C[C@H](C)[C@@H](CN(C)Cc2ccncc2)Oc2ccc(NC(=O)C3CC3)cc2C1=O | -2.3
C[C@H](CO)N1C[C@H](C)[C@H](CN(C)C(=O)NC2CCCCC2)Oc2ccc(NS(=O)(=O)c3ccccc3)cc2CC1=O | -2.9
C[C@@H]1CCCCO[C@@H](CN(C)C(=O)C2CCCCC2)[C@H](C)CN([C@H](C)CO)C(=O)c2cc(NC(=O)Nc3ccccc3)ccc2O1 | -5.6
C[C@@H]1CN([C@H](C)CO)C(=O)c2cccc(NC(=O)Nc3ccc(C(F)(F)F)cc3)c2O[C@H]1CN(C)S(=O)(=O)c1cn(C)cn1 | -3.2
COc1ccc(S(=O)(=O)Nc2cccc3c2O[C@H](CN(C)Cc2ccc(C(=O)O)cc2)[C@@H](C)CN([C@@H](C)CO)C3=O)cc1 | -0.9
C[C@H](CO)N1C[C@H](C)[C@H](CN(C)CC2CC2)Oc2c(NC(=O)c3cnccn3)cccc2C1=O | 13
COc1ccc(CN(C)C[C@@H]2Oc3ccc(NC(=O)Nc4ccc(OC)cc4)cc3CC(=O)N([C@H](C)CO)C[C@@H]2C)cc1 | -0.8

Structure: C[C@H]1CN([C@@H](C)CO)C(=O)c2cc(NC(=O)Nc3ccc(F)cc3)ccc2O[C@H]1CN(C)S(=O)(=O)c1cccs1
- Ran FRET: -6.6
Structure: C[C@H](CO)N1C[C@H](C)[C@H](CN(C)C(=O)Nc2cccc3ccccc23)Oc2ccc(NS(=O)(=O)c3cn(C)cn3)cc2CC1=O
- Ran FRET: -0.3
Structure: C[C@H]1CN([C@@H](C)CO)C(=O)Cc2cc(NS(C)(=O)=O)ccc2O[C@@H]1CN(C)C(=O)NC1CCCCC1
- Ran FRET: -1.6
Structure: Cc1noc(C)c1NC(=O)N(C)C[C@@H]1Oc2c(NC(=O)c3nc4ccccc4s3)cccc2C(=O)N([C@H](C)CO)C[C@H]1C
- Ran FRET: ?
Structure: COc1ccc(S(=O)(=O)Nc2cccc3c2O[C@H](CN(C)Cc2ccc4c(c2)OCO4)[C@H](C)CN([C@@H](C)CO)C3=O)cc1
- Ran FRET: -2.1
Structure: C[C@@H]1CCCCO[C@H](CN(C)C(=O)c2ccccc2)[C@H](C)CN([C@@H](C)CO)C(=O)c2cc(NS(=O)(=O)c3ccccc3)ccc2O1
- Ran FRET: 2.3
Structure: Cc1noc(C)c1NC(=O)N(C)C[C@H]1Oc2ccc(NS(=O)(=O)c3cccs3)cc2CC(=O)N([C@@H](C)CO)C[C@H]1C
- Ran FRET: -8.2
Structure: C[C@H](CO)N1C[C@H](C)[C@@H](CN(C)S(=O)(=O)c2ccccc2)Oc2ccc(NC(=O)CCC(F)(F)F)cc2CC1=O
- Ran FRET: -3.3
Structure: C[C@@H]1CN([C@@H](C)CO)C(=O)c2cc(NC(=O)Nc3ccc4c(c3)OCO4)ccc2O[C@@H](C)CCCCO[C@@H]1CN(C)C(=O)c1ccccc1
- Ran FRET: 2.9
Structure: Cc1noc(C)c1NC(=O)Nc1ccc2c(c1)C(=O)N([C@@H](C)CO)C[C@H](C)[C@H](CN(C)C)OCCCC[C@H](C)O2
- Ran FRET: -7.7
Structure: C[C@@H]1CCCCO[C@H](CN(C)C)[C@H](C)CN([C@H](C)CO)C(=O)c2cc(NC(=O)Cc3ccccc3)ccc2O1
- Ran FRET: 5.7
Structure: COc1ccc(CN(C)C[C@H]2Oc3ccc(NC(=O)c4ccncc4)cc3C(=O)N([C@@H](C)CO)C[C@@H]2C)cc1
- Ran FRET: -2.9
Structure: C[C@@H]1CN([C@@H](C)CO)C(=O)c2cccc(NS(=O)(=O)c3ccc(F)cc3)c2O[C@@H]1CN(C)Cc1ccc(C(F)(F)F)cc1
- Ran FRET: -5.0
Structure: C[C@@H]1CN([C@H](C)CO)C(=O)Cc2cc(NC(=O)Cc3cn(C)c4ccccc34)ccc2O[C@H]1CN(C)Cc1ccc(C(=O)O)cc1
- Ran FRET: -1.0
Structure: C[C@H]1CN([C@@H](C)CO)C(=O)c2cccc(NS(C)(=O)=O)c2O[C@@H]1CN(C)Cc1ccc2c(c1)OCO2
- Ran FRET: -4.0

# Taken from above.
# `C[C@H]1CN([C@@H](C)CO)C(=O)Cc2cc(NS(C)(=O)=O)ccc2O[C@@H]1CN(C)C(=O)NC1CCCCC1` in Ran FRET is listed with -1.6
# `C[C@@H]1CN([C@@H](C)CO)C(=O)c2cccc(NS(=O)(=O)c3ccc(F)cc3)c2O[C@@H]1CN(C)Cc1ccc(C(F)(F)F)cc1` in Ran FRET is listed with -5.0

# New compounds follow
Structure: C[C@H]1CN([C@@H](C)CO)C(=O)c2cccc(NC(=O)Nc3cccc4ccccc34)c2O[C@H]1CN(C)Cc1ccc2c(c1)OCO2
- Ran FRET: -3.3
Structure: C[C@@H]1CN([C@H](C)CO)C(=O)c2cc(NS(=O)(=O)c3cn(C)cn3)ccc2O[C@@H](C)CCCCO[C@H]1CN(C)C
- Ran FRET: -2.6
Structure: C[C@@H]1CN([C@@H](C)CO)C(=O)Cc2cc(NC(=O)Cc3ccccc3)ccc2O[C@H]1CN(C)C(=O)Nc1ccc2c(c1)OCO2
- Ran FRET: -0.5
Structure: C[C@H]1CN([C@@H](C)CO)C(=O)c2cc(NS(=O)(=O)c3cn(C)cn3)ccc2O[C@H]1CN(C)Cc1ccccc1
- Ran FRET: -4.8
Structure: C[C@@H]1CN([C@H](C)CO)C(=O)c2cc(N(C)C)ccc2O[C@@H](C)CCCCO[C@@H]1CN(C)Cc1ccncc1
- Ran FRET: -1.5
Structure: C[C@H](CO)N1C[C@H](C)[C@H](CN(C)Cc2ccncc2)Oc2c(NC(=O)Nc3cccc4ccccc34)cccc2C1=O
- Ran FRET: -5.8
Structure: C[C@H]1CN([C@@H](C)CO)C(=O)Cc2cc(NC(=O)Cn3cnnn3)ccc2O[C@H]1CN(C)C(=O)Nc1cccc2ccccc12
- Ran FRET: ?
Structure: C[C@@H]1CN([C@@H](C)CO)C(=O)c2cccc(NS(=O)(=O)c3ccc(Cl)cc3)c2O[C@H]1CN(C)S(=O)(=O)c1cccs1
- Ran FRET: ?
Structure: C[C@@H]1CCCCO[C@H](CN(C)C(=O)Nc2ccc(C(F)(F)F)cc2)[C@@H](C)CN([C@H](C)CO)C(=O)c2cc(NS(C)(=O)=O)ccc2O1
- Ran FRET: -0.7
Structure: CNC[C@@H]1Oc2c(NC(=O)Nc3ccc(C(F)(F)F)cc3)cccc2C(=O)N([C@H](C)CO)C[C@H]1C
- Ran FRET: 2.4
